Screening data from PubChem BioAssay.
Six1-Eya2 inh – inhibitors of human Six1/Eya2 interaction; AlphaScreen GST-Six1/His-Eya2 binding, biochemical; active compounds read low; control for the full effect not named in the record; 0.56% of 360,000 active; activity change, % (test concentration not listed); AID 651725; in the data active = activity change below about -65%; inconclusive = about -30% to -65%; inactive = above about -30%; also: % is scaled to controls: 0 for no effect and ±100 for the full control effect
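Compounds are tested against tagged Six1 and Eya2 proteins bridged by glutathione donor and nickel acceptor beads; after a one-hour incubation at 37 °C without light, AlphaScreen emission is recorded.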
TRPML1 ag – agonists of human TRPML1 channel; Q9GZU1; TRPML1-expressing cells, Ca2+ dye fluorescence, FDSS; host cell line not named in the record; reference of the full effect not given here; activation, % (test concentration not listed); 0.12% of 410,000 active; in the data active = activation above about 50%; inconclusive = about 30% to 50%; inactive = below about 30%; also: 0% is about no effect; the text of the record puts the active cut at 80%
Target sequence (Q9GZU1 whole entry, looked up): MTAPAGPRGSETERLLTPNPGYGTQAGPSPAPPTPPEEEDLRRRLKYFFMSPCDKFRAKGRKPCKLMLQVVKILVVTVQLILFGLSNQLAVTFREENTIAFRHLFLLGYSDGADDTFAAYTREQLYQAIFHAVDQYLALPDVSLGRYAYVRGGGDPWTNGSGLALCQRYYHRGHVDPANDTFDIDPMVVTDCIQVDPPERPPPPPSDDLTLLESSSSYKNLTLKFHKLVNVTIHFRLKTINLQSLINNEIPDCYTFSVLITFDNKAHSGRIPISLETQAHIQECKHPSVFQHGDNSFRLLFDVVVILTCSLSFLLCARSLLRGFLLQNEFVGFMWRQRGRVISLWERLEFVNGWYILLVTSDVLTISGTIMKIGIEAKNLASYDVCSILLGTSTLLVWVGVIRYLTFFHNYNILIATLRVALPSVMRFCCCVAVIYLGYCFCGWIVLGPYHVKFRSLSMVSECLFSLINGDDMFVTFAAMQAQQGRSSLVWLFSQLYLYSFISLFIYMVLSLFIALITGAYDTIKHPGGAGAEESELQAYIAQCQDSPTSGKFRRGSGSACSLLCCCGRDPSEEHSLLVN
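Cells: TRPML1-DL, 1X Tet inducer, ~16 h at 37 degrees C/5% CO2. Dye: ABD Ca8 no-wash + quencher, 45-90 min RT. Read: 10 s baseline, compound add, 110 s agonist phase; 54-4 EC80 (4uM final), 110 s antagonist phase.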
CtBP-E1A blk – CtBP/E1A binding inhibition; activity change, % (no concentration beside the values); 0.49% of 340,000 active; AlphaScreen GST-E1A/His-CtBP binding, 1536-well; active compounds read low; control for the full effect not named in the record; AID 651724; in the data active means activity change below about -65%; inconclusive means about -30% to -65%; inactive means above about -30%; also: % is scaled to controls: 0 for no effect and ±100 for the full control effect
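Protein mix (5X: 125 nM each GST-E1A, His-CtBP) was incubated with pinned compound 2 h at 37 deg C in dark, in 50 mM Tris pH 8.0 buffer with 300 mM NaCl. Glutathione donor and nickel acceptor beads followed; AlphaScreen signal read after 1 h.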
D2 ag – human D2 receptor agonism in beta-arrestin assay; 0.084% of 360,000 active; DiscoveRx PathHunter D2 beta-arrestin, luminescence, 90 min; 100% = 57 uM dopamine signal; AID 624465; activation, % (no concentration beside the values); in the data active = activation above about 40%; inconclusive = about 15% to 40%; inactive = below about 15%; also: compound concentration not given in the record; the text of the record calls up to 30% inactive
Target sequence (P14416 whole entry, looked up): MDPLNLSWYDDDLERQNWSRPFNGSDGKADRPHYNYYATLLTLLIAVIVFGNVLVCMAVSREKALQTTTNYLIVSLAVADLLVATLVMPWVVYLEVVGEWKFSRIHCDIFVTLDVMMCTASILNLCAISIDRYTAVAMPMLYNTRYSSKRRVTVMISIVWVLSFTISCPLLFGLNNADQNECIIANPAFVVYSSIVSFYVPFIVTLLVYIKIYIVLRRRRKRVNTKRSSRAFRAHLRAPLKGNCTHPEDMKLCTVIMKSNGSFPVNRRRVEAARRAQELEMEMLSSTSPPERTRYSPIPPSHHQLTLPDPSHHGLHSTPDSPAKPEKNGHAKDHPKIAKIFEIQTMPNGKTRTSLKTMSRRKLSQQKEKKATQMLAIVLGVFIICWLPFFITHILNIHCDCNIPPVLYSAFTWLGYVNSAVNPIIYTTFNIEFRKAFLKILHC
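DiscoveRx PathHunter D2 beta-arrestin cells (2,100/well) attached overnight, then compound-stimulated 90 min at 37 C in HBSS/10 mM HEPES/0.1% Tween-20 buffer; beta-galactosidase complementation read by luminescence after 1 h at ambient temperature. Dopamine 57 uM final (EC100) as control.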
TRPML1 inh – inhibitors of human TRPML1 channel | Q9GZU1 | TRPML1-inducible cells, Ca2+ dye fluorescence, FDSS; active compounds read low; inhibition of EC80 agonist-evoked calcium signal | activity change, negative = inhibition, % (test concentration not listed) | 0.02% of 390,000 active | AID 624415; in the data active means activity change below about -50%; inconclusive means about -30% to -50%; inactive means above about -30%;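 also: stimulus is agonist 54-4 at its EC80 concentration; % is scaled to controls: 0 for no effect and ±100 for the full control effect; compound concentration not given in the record; the text of the record puts the active cut at -80%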
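Calcium fluorescence in TRPML1-DL cells induced overnight with Tet: a 110 s read after compound pin addition, then a 110 s antagonist read after challenge with 54-4 at 4 uM final (EC80).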
PINK1 modulator – PINK1 expression modulation; PINK1 immunofluorescence, high-content cytometry, 24 h; 0.2% of 410,000 active; AID 624263; Potency, µM (titrated, usually from 76.6 µM), without a hit: at the top dose activation (PINK1 increase), most hits filed as activators; active = well fitted activation curve with a large enough effect; inconclusive = small, poorly fitted or top-dose-only effect; inactive = flat fitted curve, though single readings scatter; cell line not stated here;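 also: potency is read from the fitted curve at half-maximal effect; % of control where 0% means no effect; nearly all actives have a fitted effect of over 65% in size; a mitochondrial uncoupler was the plate control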
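Decision-based qHTS: stable cells, 24 h exposure to five compound concentrations, CCCP as control. Fixed cells stained for PINK1 plus nuclear, mitochondrial and cell markers, cytometer read.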
Numbers without * were called inactive; u = inconclusive; x = no result given; & = joins results of further samples; [ ] = remark or other dose.

SMILES	Six1-Eya2 inh	TRPML1 ag	CtBP-E1A blk	D2 ag	TRPML1 inh	PINK1 modulator
Nc1nc(-c2ccc(Br)cc2)cs1	-1	-0.5	-14	1.1	-6	-1.5%
COc1cccc(CNC(=O)c2ccc3c(c2)N(Cc2ccc(F)cc2Cl)C(=O)c2ccccc2S3)c1	x	1.1	x	x	5	-0.6%
CC(=O)C1=C(O)C(=O)N(CCCCCC(=O)O)C1c1ccc(N(C)C)cc1 (stereo not drawn)	10	0.7	-3	-0.3	-1	0.7%
COCc1[nH][nH]c(=O)c1C=Nc1ccc(F)cc1F	13	-0.4	8	-3.8	-15	-2.5%
C=Cc1ccc(CC2(C)C(=O)Nc3c(Cl)cccc32)cc1 (stereo not drawn)	21	-0.7	22	-4.2	x	0.1%
CCOC(=O)c1c(C)oc2nc(C)nc(N3CCN(c4cccc(C(F)(F)F)c4)CC3)c12	x	-0.6	x	x	-3	0.8%
CC1(Cc2ccccc2Cl)C(=O)Nc2c(Cl)cccc21 (stereo not drawn)	-19	-0.9	-15	-7.2	x	4.4%
Cc1nc(C(F)(F)F)ccc1C(=O)N1CCC1(C)C(=O)NCc1ccc(Cl)cc1 (stereo not drawn)	9	-0.9	2	-5.6	x	1.8%
CCC1CCC(C(=O)NC(CCSC)C(=O)NCCN(CC(C)C)CC(C)C)CC1 (stereo not drawn)	-9	-0.5	-5	-3.3	-3	5.0%
COc1ccc(C(=O)N[C@H](C(=O)NCC2CCCCC2)C(C)C)cc1	6	-0.8	-1	-0.3	12	2.8%
O=C(Nc1ccccc1C(=O)NC1CCCCC1)c1ccco1	-2	2.3	-11	-3.8	12	0.6%
CC(=O)Nc1ccc(S(=O)(=O)N2CCN(CC(O)COc3ccc4ccccc4c3)CC2)cc1 (stereo not drawn)	18	-0.2	40	2.4	6	0.0%[38.3 µM]
COC(=O)c1ccc(N(C(=O)c2ccco2)C(C(=O)NC2CCCC2)c2ccco2)cc1 (stereo not drawn)	-4	-0.8	0	-6.3	3	0.4%
CCc1ccc(Nc2nc(-c3cc4cccc(OC)c4oc3=O)c(CC)s2)cc1	x	1.1	x	x	17	2.0%
CC(C)Cn1c(SCC(=O)Nc2ncccn2)nc2ccccc21	2	0.2	-15	-3.6	-7	1.8%
Clc1ccc(C2=C3CCCCn4c(-c5ccccc5)c[n+](c43)C2)cc1	-20	-0.1	-14	-1.5	6	16µM*
Cc1ccccc1Nc1nc(N)nc(CSc2nc3ccccc3c(=O)n2CCCO)n1	-2	4.5	9	1.5	-4	-2.1%[38.3 µM]
CC1(C)NC(=O)N(c2ccccc2Cl)C1(C)NO (stereo not drawn)	4	-0.3	1	-1.2	-9	0.5%
CCCCn1c(=O)n(CC(=O)Nc2ccc(OC)c(Cl)c2)c(=O)c2c1nc(CO)n2CCC	2	-0.8	-1	-1.6	-2	0.1%
COc1ccc(CC2S/C(=C(\C#N)C(=O)NCc3ccco3)N(c3ccc(C)cc3)C2=O)cc1 (stereo not drawn)	-14	0.3	-4	-2.1	2	27%
Clc1ccc(-c2nnc(SCc3ccon3)o2)c(Cl)c1	9	1.5	-5	-4.4	-14	-0.8%[38.3 µM]
CC(C)c1ccc(OCC(=O)NCc2n[nH]c(=O)c3ccccc23)cc1	-4	-0.2	4	-2.5	-4	4.3%
O=C(CSc1nc(C2CCCCC2)n(-c2ccccc2)n1)NCC(F)(F)F	10	0.8	3	-3.3	15	0.5%
CC1(C)CC2(CC(c3ccccc3)c3ccc(O)cc3O2)NC(=S)N1 (stereo not drawn)	-7	-0.3	11	-2.9	-3	1.1%
CCN(CC1COc2ccccc2O1)S(=O)(=O)c1ccc(C)cc1 (stereo not drawn)	19	1.2	29	-0.5	15	0.0%
O=C(NC1CCCCCC1)c1cc(S(=O)(=O)N2CCOCC2)ccc1F	1	-1.1	4	-1.7	4	0.3%
C=CCn1c(SCC(=O)NCCc2ccccc2)nc2c([nH]c3ccccc32)c1=O	-3	-0.5	7	-3.9	20	4.6%
Cc1cccc(NC(=O)CSc2nccn2C)c1	-1	-1.2	2	-7.8	3	1.5%
CN(C)c1nc(C(=O)OCCO)nc(N(C)C)n1	3	-0.3	2	1.3	-6	-3.4%[38.3 µM]
COc1ccc(/C=C/C(=O)OCC(=O)Nc2cccc(S(=O)(=O)NC3=NCCCCC3)c2)cc1	-20	-0.5	u	2.6	-2	-1.7%
COc1cccc(-c2cc3c(c4c2ccn4C)C2CCC3C2)c1 (stereo not drawn)	-26	2.4	-17	-2.4	-10	u
NC(=O)C(C(=O)/C=C/c1ccc(Cl)cc1)=C1SCCS1	2	3.6	x	-2.7	26	-1.0%
CN(Cc1ccccc1)c1ncnc(N)c1[N+](=O)[O-]	-2	-0.2	-7	1.6	16	-2.0%
COC(=O)C1CCC(=S)N1C(=O)c1ccccc1 (stereo not drawn)	0	-0.1	x	-4.3	1	-0.9%
O=C(C[C@@H]1C/C=C/CC[C@H](Cc2ccc(F)cc2)C(=O)O[C@H](c2ccccc2)CNC1=O)NCCO	17	0.0	x	-2.1	3	0.9%
COc1ccc(C(=O)NCC(c2ccco2)N(C)C)cc1S(=O)(=O)NCc1ccc(Cl)cc1 (stereo not drawn)	2	0.0	18	-2.3	1	0.7%
CCCOc1ccc(N2C(=O)CC(N(CCC)C(=O)CCC(=O)O)C2=O)cc1 (stereo not drawn)	10	0.4	-5	-1.2	-23	-2.9%
COc1ccc(Cl)cc1NC(=O)c1c(NCc2ccc(C)o2)sc2c1CCCC2	x	0.4	x	x	3	0.6%
O=C(C1CCC(Cn2c(=O)c3sccc3n(Cc3ccccc3F)c2=O)CC1)N1CCCCC1 (stereo not drawn)	x	2.8	x	x	-7	24%
C[C@H](CO)N1C[C@H](C)[C@@H](CN(C)Cc2ccc(Cl)c(Cl)c2)Oc2ccc(NC(=O)Cn3cnnn3)cc2C1=O	-6	0.1	-7	-2.8	-16	1.4%
O=C1NC(Cc2ccccc2)c2nc3cc(F)c(F)cc3c(=O)n2-c2ncccc21 (stereo not drawn)	-4	x	-15	-1.9	x	3.4%
CC(=O)c1ccc(OC(=O)C2CC(=O)N(c3cccc(C)c3)C2)cc1 (stereo not drawn)	-1	0.5	-1	-2.0	48	u
O=C(Nc1ccc(F)cc1)c1cccnc1NCCc1ccccc1	11	0.0	4	-5.2	-17	12%
C=CCOC(=O)C1=C(C)NC(SCC(=O)Nc2ccccc2)=C(C#N)C1c1ccco1 (stereo not drawn)	4	3.3	-7	0.2	15	11%
CC1=C(C(=O)OC2CCCCCC2)C(c2c(Cl)cccc2Cl)CC(=O)N1 (stereo not drawn)	x	0.1	x	x	-10	0.5%
CCCCn1c(N)c(N(CC(C)C)C(=O)C2CCN(C(=O)c3ccc(F)cc3)CC2)c(=O)[nH]c1=O	7	0.5	1	1.1	-23	-0.6%
O=S(=O)(c1ccc(Cl)c(F)c1)N1CCC(c2nc(-c3ccncc3)no2)CC1	4	2.2	10	-0.1	2	14%[38.3 µM]
Cc1nn(C)c(C(=O)N/N=C/c2ccncc2)c1Cl	2	0.1	0	-2.2	8	2.4%
CCC(=O)NC(=S)NNC(=O)COc1ccc(Br)cc1	12	-0.6	2	-0.8	2	1.0%
COC(=O)Cc1ccc(O)c(N)c1	0	0.4	7	1.5	4	-0.2%
COC(=O)c1c(NC(=O)C(=O)N2CCOCC2)sc2c1CCC2	1	-0.6	-7	-2.8	-3	0.7%
O=c1[nH]c(=O)n(Cc2ccccc2)c2nc(-c3ccco3)cc(C(F)(F)F)c12	2	3.4	-1	1.5	31	14%
CC1C/C(=N\NC(N)=S)c2cc(Cl)ccc2S1 (stereo not drawn)	-6	0.5	-3	-1.4	-14	4.8%
COc1ccc(C(C)C)cc1S(=O)(=O)N1CCC(C(=O)NCC2CCCO2)CC1 (stereo not drawn)	3	0.6	-2	-3.1	10	-3.4%
O=C(CN(c1ccccc1)S(=O)(=O)c1ccccc1)NCCSc1nc2ccccc2s1	5	2.1	-13	-6.0	3	9.0%
COc1ccc2cc3cc(C(=O)NC(C)C)oc3nc2c1	-20	-0.2	u	0.3	-14	-1.3%
COc1cc(OC)cc(C(=O)NC(=S)NCCc2ccccc2)c1	-13	1.2	-13	-2.9	-15	2.5%[38.3 µM]
CCOC(=O)c1ccc(NC(=O)C2=C(C)C(=O)OC23CCN(C(C)=O)CC3)cc1	x	0.3	x	x	-5	-0.9%
CCCn1c(=S)[nH]c2cc(C(=O)N3CCc4ccccc4C3)ccc2c1=O	1	2.6	13	1.2	-11	2.2%
CCc1ccccc1NS(=O)(=O)c1ccc(OC)c2ncccc12	14	1.3&1.5	x	6.9	8&9	0.5%&6.6%

Next part.
SMILES	Six1-Eya2 inh	TRPML1 ag	CtBP-E1A blk	D2 ag	TRPML1 inh	PINK1 modulator
COc1ccc(CCNC(=O)COC(=O)c2ccccc2NCCO)cc1OC	3	1.6	6	0.8	21	0.0%
O=C(Cc1cccs1)N/N=C/c1ccccn1	-6	-0.1	-5	-1.5	-14	-0.1%
Cc1ccc(NC(=O)CCC(=O)NNC(=O)Cc2ccccc2)cc1C	1	0.1	12	-2.4	4	x
COC(=O)c1ccc(CN2C(=O)NC3(CCC(C)CC3)C2=O)o1 (stereo not drawn)	13	-0.3	-2	1.1	-5	0.2%
CC(C)NS(=O)(=O)c1ccc(NC(=O)C(C)OC(=O)CCC2CCCCC2)cc1 (stereo not drawn)	1	0.5	8	0.4	42	-2.7%
Cc1ccc(OCCSc2nc3ncnc(N)c3[nH]2)cc1	-8	1.1	x	1.8	25	0.9%
CCCC(=O)NC(=S)Nc1cccc(Cl)c1N1CCCC1	0	0.9	7	-3.1	-12	0.9%
Cc1c(C(=O)OCC(O)=C(C#N)c2nc3ccccc3[nH]2)oc2ccc(Br)cc12	-15	-0.1	-23	11	-12	u
Cc1nn(C)cc1/C=N/n1nnnc1N	-1	-0.4	3	-0.2	-6	-1.6%
COc1ccc(OCc2cc(C(=O)NC(C)c3csc(C)n3)no2)c(Cl)c1 (stereo not drawn)	0	-1.5	-1	6.4	13	-0.7%
